S aureus helic: S. aureus DNA helicase inhibition; purified S. aureus helicase, fluorescence unwinding assay; about half of the hits fall short of the stated cut; inhibition, %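 (tested at about 80 µM)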; actives 0.05% (n = 120,000); AID 485395;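 active means both duplicates at 50% or more, or one of them with a favoured structure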;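 further: 0% = mean of negative control wells and 100% = mean of positive control wells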
MgrA-DNA mod: S. aureus MgrA-DNA binding modulation; actives 0.13% (n = 84,000); inhibition, %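 (about 10 µg/mL by stock and volumes)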; AID 602314; fluorescence polarization;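 active means above 50% in either of two replicates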;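 further: 0% = protein plus DNA without compound and 100% = DNA alone without protein; higher means less MgrA bound to DNA so lower polarization; one replicate is shown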
The depositor's hits bear a star; . = no result given; & = joins results of further samples. Not all compounds are listed. The share of hits here may be higher or lower than overall.

SMILES	S aureus helic	MgrA-DNA mod
O=C(O)c1cn(-c2ccccc2)nc1/C(=N\O)c1ccccc1	-5	.
N#C/C(=C1\Nc2ccccc2S1)c1sc2ccccc2c1Cl	-19	.
O=C(/C=C/OC(=O)c1ccc(Cl)cc1)c1ccc(Cl)cc1	.	-1.6
Cc1ccc(-n2cnc3cc(N=Cc4nc5ccccc5n4C)ccc32)cc1	17	0.2
CSc1ccc(CNCc2ccncc2)cc1	-6	-4.7
S=c1[nH]cnc2scc(-c3ccccc3)c12	13	.
O=C(CSc1nc2cc(Cl)ccc2s1)NCc1ccc(F)cc1	5	0.7
O=C(COCc1cc(-c2ccco2)on1)Nc1cccnc1	-8	.
S=C(N/N=C/c1cccs1)N/N=C/c1cccs1	25	.
Cc1cnc(C(=O)OCc2csc(-c3ccccc3)n2)cn1	0	.
COc1ccc2nc3sc(C(=O)N(C)c4ccc(Cl)cc4)cc3cc2c1	1	-0.3
Cc1cc2ccccc2c(=O)n1CC(=O)NCCCN1CCC(C)CC1	14	-1.8
CNC(=O)c1c(NC(=O)CC2SC(=O)NC2=O)sc2c1CCCC2 (configuration not stated)	3	.
O=S1(=O)CC(N2CCCCC2)c2ccccc21 (configuration not stated)	.	-2.5
CCN1/C(=C2/SC(=S)N(N)C2=O)Sc2ccccc21	2	-1.7
O=C(COC(=O)c1cc(-c2ccccc2)nc2ccccc12)NCc1ccco1	2	.
CCOc1ccc2c(c1)nc1n2C(=O)CC(c2ccccc2)S1 (configuration not stated)	-19	.
Cc1ccc(S(=O)(=O)CC(=O)N2CCCC2)cc1	-5	2.7
O=c1c(NCCC2=CCCCC2)nccn1-c1ccccc1	-18	.
CN(C)c1cccc2c(Br)ccc(N(C)C)c12	-7	-1.0
N#CCCN(Cc1ccccc1)C(=O)Nc1ccccc1	.	-0.3
COc1ccc(NS(=O)(=O)c2cc(OC)ccc2NC(=O)c2cc(C)oc2C)cc1	18	.
Cc1c(Cl)c(=O)oc2cc(OC(=O)C(C)NC(=O)OCc3ccccc3)c(Cl)cc12 (configuration not stated)	20	2.5
Cc1ccc(CNC(=O)CN2C(=O)COc3cc(S(=O)(=O)N4CCC(C)CC4)ccc32)cc1	-1	-0.7
C/C(=N\NC(=O)COc1cccc(C)c1)c1ccco1	10	6.0
O=C(OCCCOc1ccc(F)cc1)c1ccc(-n2cnnn2)cc1	-12	.
Clc1ccc(C2=NC(c3ccc(Cl)c(Cl)c3)NN2)cc1 (configuration not stated)	.	1.9
COc1ccc(C2C(C(=O)N3CC(C)CC(C)C3)CCC(=O)N2c2ccc(OC)cc2)cc1 (configuration not stated)	15	-3.8
Cc1ccc(C)c(N2N=C(C(=O)OCn3nnc4ccccc4c3=O)CCC2=O)c1	6	.
CCCCN1C(=O)CC(C(=O)NC2CCCCCC2)C1c1ccc(OC)cc1 (configuration not stated)	-4	.
Cc1cc(C)nc(N/C=C(\C#N)S(=O)(=O)Cc2ccco2)n1	.	2.9
N#CC1=C(N)Nc2onc(-c3cccc(O)c3)c2C1c1ccccc1 (configuration not stated)	14	-1.3
N#CCOc1nc(OCC#N)nc(OCC#N)n1	-9	2.9
O=S(=O)(c1ccc(N2CCC(CNc3nc4ccccc4s3)CC2)cc1)N1CCOCC1	-9	1.0
COc1ccc(N=Cc2cccn2-c2ccc(Br)cc2)cn1	9	-1.3
CN1C(C(=O)N2CCCC2)=CC(c2cccs2)=NS1(=O)=O	-1	0.1
COc1ccc(S(=O)(=O)N2CCc3ccccc3C2)cc1C(=O)O	-2	.
Cc1nc2cc(C(F)(F)F)ccc2n1C1CCN(CC(=O)N2CCCC2)CC1	1	-17
O=C(O)/C=C/c1nc2ccccc2o1	-3	.
Cc1nccc(-c2cccc(NN=C(C#N)C#N)c2)n1	20	.
CC(C)(C)NC(=O)CSc1nnc(NC(=O)C2CC(=O)N(c3ccc(F)cc3)C2)s1 (configuration not stated)	2	.
COc1cc(/C=C2\SC(=O)NC2=O)ccc1Oc1ccc([N+](=O)[O-])cc1[N+](=O)[O-]	.	0.2
Cc1ccc2cc(N=Cc3ccc(O)cc3)ccc2n1	1	.
Cc1cccc(N(Cc2cc3ccccc3[nH]c2=O)S(C)(=O)=O)c1	-12	.
O=C1NC(=O)C(=CN2CCN(S(=O)(=O)/C=C/c3ccccc3)CC2)C(=O)N1	-30	.
CC1(C)CC(=O)C(C=NCc2cccnc2)=C(O)C1	-3	0.5
COc1cccc(NC(=O)Cn2c(=O)n(Cc3ccc(C(=O)NCc4ccco4)cc3)c(=O)c3ccccc32)c1	-23	.
Cc1csc(N=C(N)N)n1	.	3.3
CCOC(=O)C1=C(C)N=c2s/c(=C/c3ccc(OC)c(OC)c3)c(=O)n2C1c1ccc(OC(C)=O)cc1 (configuration not stated)	.	0.6
CCOc1ccc(NC(=O)Cn2c(=O)oc3cc(S(=O)(=O)N4CCCC4)ccc32)cc1	-7	.
CC(C1CC2CCC1C2)n1c(COc2ccccc2F)nnc1SCCC#N (configuration not stated)	-3	.
CN(C)c1cc(C(F)(F)F)cnc1C#N	.	2.4
CCCN(CCC)C(=O)Cn1c(=O)n(CCCC(=O)NCc2ccc(C)cc2)c(=O)c2ccccc21	-20	.
COC(=O)c1cccc(C(=O)Oc2ccc(OC(=O)c3cccc(C(=O)OC)n3)c(Cl)c2)n1	3	-0.6
C/C(=N\NC(=S)Nc1ccc(C(C)C)cc1)c1ccco1	.	6.9
CNc1nc(N)c(C(=O)c2ccccc2)s1	29	-0.3
O=C1c2ccccc2C(=O)N1CC(=O)N(c1ccccc1)c1ccccc1	-16	0.1
CC1CCCC(C)N1C(=O)CSc1nc2ccccc2o1 (configuration not stated)	-12	-0.7
CCOC(=O)c1ccc(N=C2SC(C(=O)Nc3ccc(OC)cc3)CC(=O)N2C)cc1 (configuration not stated)	.	0.8
COc1nc(N)c(C#N)c(-c2ccccc2)c1C#N	0	-3.3

(next part)
SMILES	S aureus helic	MgrA-DNA mod
O=c1onc(-c2cccnc2)n1-c1ccccc1C(F)(F)F	.	0.3
O=C(CONC1=NCCCCC1)Nc1ccc(Oc2ccccc2)cc1	-2	.
CN1C(=O)Cc2cc(S(=O)(=O)NCCN3CCN(c4ccccc4F)CC3)ccc21	-11	.
COc1ccc(CSc2ncn[nH]2)cc1	-2	-1.3
O=C(Nc1ccc(S(=O)(=O)N2CCOCC2)cc1)c1ccccc1	.	0.8
COc1ccc(CCN=Cc2ccccn2)cc1OC	.	4.4
COC(=O)c1ccc(OCC(O)CN(Cc2ccccc2O)C2CCCCC2)c(OC)c1 (configuration not stated)	-1	.
CN1CCC(N(C)Cc2cc(=O)oc3cc4c(cc23)CCC4)CC1	-2	.
COC(=O)C(CC(C)C)NC(=O)c1c(-c2c(Cl)cccc2Cl)noc1C (configuration not stated)	-28	.
O=C(CC(NCCc1ccc(Cl)cc1)C(=O)O)c1ccc(Br)cc1 (configuration not stated)	7	5.2
COc1ccc(-c2c[n+](=O)c3c(n2[O-])CCC3)cc1	1	1.8
CC1CCCC(C)N1C(=O)COc1ccc(C(=O)N/N=C/c2ccncc2)cc1 (configuration not stated)	-3	.
CCSc1nc2[nH]c(=O)cc(O)c2s1	0	-2.2
C=CCSc1nsc(N)n1	10	-1.4
CC1CCCCN1C(=S)Nc1ccc(S(=O)(=O)N2CCCCC2)cc1 (configuration not stated)	.	-0.2
CC1CCN(S(=O)(=O)c2ccc(C(=O)Nc3sccc3C(N)=O)cc2)CC1	-5	.
Cc1onc(-c2c(Cl)cccc2Cl)c1C(=O)N[C@@H]1C(=O)N2[C@@H]1SC(C)(C)[C@@H]2C(=O)O	.	0.4&1.6
CCOC(=O)CN1C(=O)/C(=C2\SC(=S)N(NC(=O)c3cccnc3)C2=O)c2ccccc21	.	-1.7
C=CCn1c(=S)sc2c(SCC(=O)N3CCc4ccccc43)ncnc21	9	0.7
CC(=O)NC1C(Oc2ccccc2)OC(CO)C(O)C1O (configuration not stated)	8	.
CCCNC(=O)c1[nH]c2ccccc2c1Sc1ccc(Cl)cc1	10	0.8
OC(CNc1ccc(Cl)cc1)CSc1ccc(Cl)cc1 (configuration not stated)	.	-3.3
O=C1c2ccccc2C(=O)C1c1ccc2ccccc2c1	2	1.2
Cc1ccc(C(=O)O)c(=O)[nH]1	.	-2.2
O=C(Oc1ccc(Cl)c2cccnc12)c1ccc(F)cc1	8	.
O=C(CC(C(=O)O)N1CCCCC1)Nc1ccccc1 (configuration not stated)	-22	.
O=C(Nc1nc2c(ccc3ccccc32)s1)c1cc(=O)c2ccccc2o1	.	0.4
CCCCC1(O)CCOC(C)C1 (configuration not stated)	8	.
CC(C)(C)NC(=O)CSc1nsc(SCC(=O)NC(C)(C)C)c1C#N	-1	-1.1
CCOC(=O)c1cnn(-c2ccc(C(F)(F)F)cn2)c1N	5	.
NNc1nc2c(Cl)cc(Cl)cc2s1	4	.
CCOC(=O)C1=C(C)N=c2s/c(=C\c3ccc(O)c(Br)c3)c(=O)n2C1c1ccc(OC)cc1 (configuration not stated)	.	-4.3
NC(=O)CC1(Nc2ccccc2)CCN(Cc2ccccc2)CC1	-18	4.9
CCOc1ccc(NC(=O)CCC(=O)Nc2cc(OC)c(NC(=O)c3ccco3)cc2OC)cc1	16	-2.4
COc1cc(NC(=O)N(C)C)cc(OC)c1OC	-11	1.6
CCC(C)NC(=S)Nc1ccccc1 (configuration not stated)	-7	7.7
O=C1CN(C(=O)C2COc3ccccc3O2)c2ccccc2N1 (configuration not stated)	2	-0.2
N#CC(NCc1ccccc1)c1ccc(Cl)c(Cl)c1 (configuration not stated)	.	1.9
CCn1c(SCC(N)=O)nnc1C(C)Oc1ccc(C)cc1C (configuration not stated)	16	1.1
c1cncc(CNCc2ccc3c(c2)OCO3)c1	10	3.0

For reference, four of the compounds above:
SMILES	S aureus helic	MgrA-DNA mod
O=C(O)c1cn(-c2ccccc2)nc1/C(=N\O)c1ccccc1	-5	.
N#C/C(=C1\Nc2ccccc2S1)c1sc2ccccc2c1Cl	-19	.
O=C(/C=C/OC(=O)c1ccc(Cl)cc1)c1ccc(Cl)cc1	.	-1.6
Cc1ccc(-n2cnc3cc(N=Cc4nc5ccccc5n4C)ccc32)cc1	17	0.2

Returning to the listing with the 3 entries that preceded the break.
SMILES	S aureus helic	MgrA-DNA mod
N#CC(NCc1ccccc1)c1ccc(Cl)c(Cl)c1 (configuration not stated)	.	1.9
CCn1c(SCC(N)=O)nnc1C(C)Oc1ccc(C)cc1C (configuration not stated)	16	1.1
c1cncc(CNCc2ccc3c(c2)OCO3)c1	10	3.0
CC1=NN(c2cccc(C(F)(F)F)c2)C(=O)C1	-5	.
CN(C(=O)CSc1ncccc1C(=O)O)C1CCCCC1	9	.
CSc1nc2ccccc2c(=O)n1C	.	1.4
CCCCc1ccc(NC(=O)Cn2c(C(C)O)nc3ccccc32)cc1 (configuration not stated)	4	-0.9
CC(c1ccco1)N(C(=S)Nc1cccc(Cl)c1)C1CCCCC1 (configuration not stated)	3	.
O=c1[nH]c(CSC2=NCCCN2)nc2ccccc12	-5	.
O=C(O)c1ccn(COc2ccccc2)n1	8	-2.8
COc1cccc(-c2nc(CS(=O)(=O)CC(=O)NC(C)c3ccccc3)c(C)o2)c1 (configuration not stated)	11	.
CC1=C(C#N)C(=O)N(CCc2ccccc2)C(=O)/C1=C/c1ccc(-c2ccc(S(N)(=O)=O)cc2)o1	-39	.
N#Cc1ccc(S(=O)(=O)Oc2ccc(Oc3ccccc3)cc2)cc1	.	0.8
CC(OC(=O)C1CCCCC1)c1nc2ccccc2[nH]1 (configuration not stated)	-7	0.3
CCOC(=O)c1csc(-c2ccc(C(F)(F)F)cn2)n1	-8	.
O=C(CSc1nc(Nc2ccc3c(c2)OCO3)c2ccccc2n1)c1ccc(Cl)cc1	3	0.8
CC(=O)OC(C(=O)n1nc(C)cc1C)c1ccccc1 (configuration not stated)	9	0.4
COC(=O)C(F)C(OC)(OC)OC (configuration not stated)	-10	.
CCc1ccccc1NC(=S)N(CCCN1CCOCC1)Cc1ccccn1	13	3.7
Cc1nc(-c2cccnc2)nc(NCc2ccccc2)c1Cl	.	-2.7
Cc1ccc2c(c1)-c1onc(C(=O)N(CCC(C)C)Cc3ccco3)c1CO2	-9	.
N#Cc1ccc(OCc2ccc(F)cc2)cc1	5	2.8
O=c1ccc2cc(S(=O)(=O)N3CCCC3)ccc2o1	1	-1.5
CCC(C)Cn1c(COC)nc2ccccc21 (configuration not stated)	-3	.
Cc1nnc(NC(=O)c2ccccc2C(F)(F)F)s1	13	.
CCN(CC)CC1CCCNC1 (configuration not stated)	5	1.5
CCc1ccc(C(=O)c2cncc(Br)c2)cc1	11	1.2
CCOc1ccc(NC(=O)Cn2c(C(=O)OC)ccc2-c2ccco2)cc1	20	.
Cc1ccc(Oc2ncccc2NC(=O)Nc2ccccc2)c2c1CCC2	.	0.3
CC(C)=NNc1ccc2nnc(-c3ccccc3)n2n1	7	.
NC(Cc1c[nH]c2ccccc12)C(=O)NCc1ccccc1 (configuration not stated)	-1	-0.8
Cc1c(C(=O)N2CCCCC2)c(S(=O)(=O)N2CCC(C)CC2)c(C)n1C	8	.
O=C(O)CC1(CC(=O)NCc2cc(F)cc3c2OCOC3)CCCCC1	.	-0.1
CCOC(=O)c1c(N=Cc2ccncc2)n[nH]c1C	.	-2.0
COC(=O)c1c(N)c(C#N)c(C)n1-c1ccccc1	3	1.4
CC12CCC(=O)N1C(C(=O)OCc1nnc(-c3ccccc3)o1)CS2 (configuration not stated)	4	.
Cn1c(=S)n(CN2CCOCC2)c2ccccc21	3	4.0

Retrieved by structure from the list above, 5 records:
SMILES	S aureus helic	MgrA-DNA mod
O=C(O)CC1(CC(=O)NCc2cc(F)cc3c2OCOC3)CCCCC1	.	-0.1
CCN(CC)CC1CCCNC1 (configuration not stated)	5	1.5
CCc1ccc(C(=O)c2cncc(Br)c2)cc1	11	1.2
CC12CCC(=O)N1C(C(=O)OCc1nnc(-c3ccccc3)o1)CS2 (configuration not stated)	4	.
NC(Cc1c[nH]c2ccccc12)C(=O)NCc1ccccc1 (configuration not stated)	-1	-0.8

Bioassay records: PubChem, ICCB-Longwood Screening Facility, Harvard Medical School
